T cruzi repl: blocks replication of Trypanosoma cruzi; T. cruzi beta-gal in NIH3T3, luminescence, 90 h; hit rate 1.4% among 300,000; inhibition, % (no concentration beside the values); AID 1885;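 active = mean inhibition across valid replicates above about 55%, limit read from the data; inconclusive = mean below that limit but half or more replicates reach it; inactive = mean below it, under half of replicates reach it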;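 also: signal also drops with host cell toxicity which is not excluded here; 0% = plate median of DMSO wells and 100% = zero luminescence signal; higher percent means less beta-gal luminescence so fewer parasites; stock transfer was 50 nL into about 50 µL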
ALR H2O2 inh: inhibitors of human sulfhydryl oxidase ALR; P55789; purified ALR, DTT oxidation, H2O2 HRP-luminol luminescence; inhibition, % (concentration not given with the values); hit rate 3.8% among 290,000;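 active = mean and each replicate at 75% or more; inconclusive = only one of the two met; inactive = neither met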;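 also: stock transfer was 7.5 nL into about 7.5 µL; 0% = neutral wells and 100% = wells with inactivated enzyme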
LANA-H2B inh: blocks KSHV LANA binding to histone H2A/H2B; AID 2629; cell-free LANA-H2A/H2B peptide, fluorescence polarization; hit rate 0.6% among 320,000; inhibition, % (test concentration not listed); in the data active = inhibition mostly above about 10%, no sharp cut-off; inactive = mostly below about 6.7%;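 also: stock transfer was 7.5 nL into about 10 µL; 0% = median of vehicle wells and 100% = median of positive control wells; one replicate is shown; the record names a cut of 25% in any replicate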
Target sequence (Q9QR71 whole entry, looked up): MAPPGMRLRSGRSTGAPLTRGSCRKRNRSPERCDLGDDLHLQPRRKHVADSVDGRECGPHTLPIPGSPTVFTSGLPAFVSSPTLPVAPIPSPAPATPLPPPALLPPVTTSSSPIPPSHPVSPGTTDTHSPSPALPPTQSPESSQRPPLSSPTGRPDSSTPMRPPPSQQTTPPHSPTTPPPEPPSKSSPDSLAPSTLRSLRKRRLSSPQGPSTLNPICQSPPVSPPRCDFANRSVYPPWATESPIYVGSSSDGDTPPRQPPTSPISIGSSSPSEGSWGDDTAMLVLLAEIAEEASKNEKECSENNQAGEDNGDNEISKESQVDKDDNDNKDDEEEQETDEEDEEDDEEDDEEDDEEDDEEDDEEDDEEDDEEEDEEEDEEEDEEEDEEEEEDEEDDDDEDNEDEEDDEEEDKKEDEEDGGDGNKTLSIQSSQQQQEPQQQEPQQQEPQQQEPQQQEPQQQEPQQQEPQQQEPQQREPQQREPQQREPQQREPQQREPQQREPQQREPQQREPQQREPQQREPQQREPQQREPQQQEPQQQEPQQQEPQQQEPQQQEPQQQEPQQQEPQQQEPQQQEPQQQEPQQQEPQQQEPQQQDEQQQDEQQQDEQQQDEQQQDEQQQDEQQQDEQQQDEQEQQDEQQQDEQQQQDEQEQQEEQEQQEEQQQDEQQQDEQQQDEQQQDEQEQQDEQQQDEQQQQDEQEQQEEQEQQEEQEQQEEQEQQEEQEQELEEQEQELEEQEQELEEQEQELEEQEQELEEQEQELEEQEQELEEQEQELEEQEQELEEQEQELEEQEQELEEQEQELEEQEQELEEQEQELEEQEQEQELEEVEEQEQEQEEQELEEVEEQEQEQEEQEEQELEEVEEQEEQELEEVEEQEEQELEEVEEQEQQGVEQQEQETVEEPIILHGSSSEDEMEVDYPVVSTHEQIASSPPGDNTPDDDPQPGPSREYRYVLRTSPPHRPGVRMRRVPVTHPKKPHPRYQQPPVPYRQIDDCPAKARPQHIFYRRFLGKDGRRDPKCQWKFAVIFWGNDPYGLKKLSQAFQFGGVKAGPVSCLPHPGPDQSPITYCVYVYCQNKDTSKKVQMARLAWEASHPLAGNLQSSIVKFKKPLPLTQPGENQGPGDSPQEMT
rRNA inh HTS: inhibits bacterial ribosomal RNA function over humanized ribosomes; hit rate 1.6% among 350,000; AID 720706; E. coli WT GFP vs humanized-ribosome RFP mutants, fluorescence, 24 h; active compounds read low; DMSO median 0, no signal -100; GFP signal change (wild-type ribosome), % (concentration not given with the values);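 active = significant combined selectivity score with lowered wild-type GFP, culture density cut under 30%, mutant RFP and density less affected; inactive = any of these conditions unmet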; also: one replicate is shown; some compounds called inactive have numbers as strong as hits
A1 inh: inhibitors of the anti-apoptotic protein A1, read as caspase activation; AID 2462; caspase activation, % (no concentration beside the values); MEF A1-2A-BIM cells, Caspase-Glo 3/7 luminescence, 3 h; percent of clofoctol response, vehicle zero; hit rate 0.066% among 330,000;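 active = over half of replicate activation scores above 10%, or exactly half above 10 with the replicate mean above 10; inconclusive = replicate mean below 10 yet half the replicates above 10; inactive = over half of replicates below 10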;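 also: wells of about 30 µL received 50 nL stock; many hits fall short of the cut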
Calb FLC: affects C. albicans growth with fluconazole; C. albicans CaCi-2 (fluconazole-resistant clinical isolate) + fluconazole, Alamar Blue growth, 48 h; growth inhibition, % (test concentration not listed); hit rate 0.57% among 300,000; AID 1979;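 active = most replicates above 75%; inconclusive = exactly half above 75%; inactive = most below 75%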;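 also: all wells also contain fluconazole at 8 µg/ml as a sub-toxic cotreatment; 0% = median of DMSO wells and 100% = median of geldanamycin control wells; wells of about 8 µL received 7.5 nL stock; the first replicate is given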
Beta2AR agonist: activates human beta-2 adrenergic receptor causing internalization; P07550; Am2.2-beta2AR cells, FAP receptor internalization, flow cytometry; reference of the scale not given here; hit rate 0.43% among 340,000; response, % (no concentration beside the values);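 active = response above a set limit, near 3 SD of response in nonfluorescent compounds, cut at about 42% in these data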;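 also: stock transfer was 100 nL into about 11 µL; a reference agonist was the positive control; negative values mostly stem from fluorescent compounds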
Beta cell apopt: blocks beta cell apoptosis; hit rate 0.8% among 300,000; protection from apoptosis, % (concentration not given with the values); INS-1E cytokine-induced death, ATP luminescence, 48 h; percent of positive-control rescue, neutral wells zero;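 active = all replicates at 75% or more, or half of them and the mean; inconclusive = half reach 75% but not the mean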;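 also: 0% = cytokine-treated negative control wells and 100% = positive control rescue; higher means more ATP so stronger rescue from cytokine killing; wells of about 40 µL received 100 nL stock; the first replicate is given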
rRNA inh HTS OD600: recorded beside rRNA inh HTS, whose call it bears; OD600 change, %; measured here: OD600 growth;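 optical density of the mix in the first replicate; 0 = DMSO median and -100 = no signal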
rRNA inh HTS RFP: also measured in rRNA inh HTS; calls as there; RFP signal change, %; measured here: RFP humanized mutant strains;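 first replicate; 0 = DMSO median and -100 = no signal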
* = called active by the depositor; ? = inconclusive; . = no result given. These rows are one share of the data; the hit share may differ from the screen's.

SMILES	T cruzi repl	ALR H2O2 inh	LANA-H2B inh	rRNA inh HTS	rRNA inh HTS OD600	rRNA inh HTS RFP	A1 inh	Calb FLC	Beta2AR agonist	Beta cell apopt
COc1ccc(SCCCn2c(=O)c3c(ncn3C)n(C)c2=O)cc1	-5	.	-2.6	-1	-7	0.6	0.1	-20	0	2
Cn1c(-c2ccc(F)cc2)cnc1SCC(=O)N1CCCc2ccccc21	21	-7	1.3	4	2	-1.1	-0.6	15	-5	34
O=C(N1CCC(n2nc(-c3ccccc3)oc2=O)CC1)C1(c2ccccc2)CC1	4	0	2.9	.	.	.	-0.2	7	-7	2
CN(C)N1C(N)=C(C#N)C(c2cccc([N+](=O)[O-])c2)C2=C1CC(C)(C)CC2=O (centres undefined)	18	.	.	2	2	-1.8	.	5	-9	.
Cc1cc2[nH]c(=O)c3ccccc3n2n1	-3	.	3.1	.	.	.	0.3	9	-3	1
O=C(CSCc1ccc(Cl)cc1)Nc1ccc2c(c1)OCO2	-14	-10	1.3	.	.	.	0.2	-79	2	-2
CCC(C)(C)NC(=O)CN(Cc1ccc(OC)cc1)C(=O)CCC(=O)Nc1nccs1	7	0	-1.1	0	5	5.4	-0.5	22	3	-3
Cc1cccc(C)c1OCC(=O)N/N=C/c1ccncc1	2	-2	0.4	11	3	-0.8	-0.1	2	11	1
CN(CC(=O)Nc1ccccc1Cl)C(=O)COC(=O)Cc1ccc(F)cc1	-4	-1	1.3	5	7	1.3	-0.2	-1	-2	-6
CCOc1ccc(NC(=O)CCn2nc(C)c(S(=O)(=O)N3CCCCC3)c2C)cc1	-1	-12	3.9	0	4	-3.4	-0.3	-2	-7	-2
C/C(N)=C(/C#N)C(=O)CSc1nc2ccccc2c(=O)n1Cc1ccc(C)cc1	25	-7	4.0	-3	-3	8.7	0.2	1	5	8
CC(C)c1ccc(/C=N/n2nnnc2Nc2ccccc2)cc1	0	-1	-1.7	.	.	.	-0.2	-4	7	-3
Cc1c(C(=O)OCC(C)C)[nH]c2c1C(=O)CC(c1ccco1)C2 (centres undefined)	17	-12	-7.8	-14	-30	-1.2	-0.3	-1	26	28
Cc1c(C2N3CC4(C)CN2CC(C)(C3)C4=O)c2ccccc2n1C (centres undefined)	4	-5	-2.6	.	.	.	-0.3	-7	9	4
COc1ccc2c(c1)[nH]c1c(=O)n(Cc3ccco3)cnc12	12	-7	-5.8	.	.	.	-0.3	3	-1	6
CCOC(=O)c1ccc(Cl)c(NC(=O)c2ccc(-c3ccccc3)cc2)c1	11	-3	2.2	8	7	-0.2	0.1	5	7	6
COc1ccc(-c2c(C#N)sc(C(N)=O)c2-c2ccc(OC)cc2)cc1	-8	-4	4.3	16	4	1.2	0.5	-1	6	2
COc1ccc(CN2C(=O)c3cccnc3C2Nc2cc(Cl)c(OC)cc2OC)cc1 (centres undefined)	33	64	3.3	.	.	.	0.4	-8	-16	-7
COc1ccc(S(=O)(=O)N(C)CC(=O)NCCc2ccccc2)cc1OC	-2	5	0.2	7	10	-0.7	0.0	-1	0	-5
COc1ccc(NS(=O)(=O)c2cc(NC(=O)c3cccnc3Cl)ccc2N2CCCC2)cc1	-3	-13	-1.7	-3	-10	-8.2	1.1	11	9	6
CCN(C(=O)CN1CCCCC1)C1(C)C(=O)c2ccccc2C1=O	-18	-15	-0.6	-1	1	-1.6	-0.2	14	-3	0
COc1cccc(-c2csc3ncnc(Sc4nnnn4C)c23)c1	.	-1	2.8	-1	-5	-13	0.6	.	1	-2
CCC(C)(C)NC(=O)c1ccc2c(c1)N(CC(=O)N1CCCC1)C(=O)C(C)(C)O2	-15	-4	3.5	4	5	6.6	1.2	-2	-4	0
COC(=O)Cc1ccc(NC(=S)N2CCCC(C)C2)cc1 (centres undefined)	2	-12	6.4	22	20	-2.8	0.2	6	6	-8
CCN(Cc1ccccc1)c1ccc(N=Nc2nn(C)c(C)c2[N+](=O)[O-])cc1	22	-3	-1.1	.	.	.	-0.8	-13	-13	-1
CC1=C(C(=O)Nc2ccccn2)C(c2cccnc2)n2nnnc2N1 (centres undefined)	-14	7	-0.3	9	10	-1.0	-0.5	-2	-2	1
Nc1ccc(/C=C/C(=O)c2cccs2)cc1	20	4	5.9	-13	-8	-1.3	-0.4	1	7	-1
O=c1cc(-c2ccc(Cl)c(Cl)c2)[nH][nH]1	4	72	-0.1	.	.	.	-0.2	13	3	-5
CC(C)CCNC(=O)C1CCC(CNc2c(N3CCC(C)CC3)c(=O)c2=O)CC1 (centres undefined)	3	-4	-1.6	4	-7	-1.8	1.5	-2	-10	4
CC(=O)c1ccc(N2CCN(c3ccc(S(=O)(=O)NCCCN(C)C)cc3[N+](=O)[O-])CC2)cc1	53	1	-0.1	1	1	-4.0	-0.2	7	17	22
Cc1ccc(S(=O)(=O)NCCCC(=O)N2CCC(C)CC2)cc1	-3	0	3.8	4	10	-3.2	0.3	1	-1	3
CN(C)C(=O)C(=O)c1cccn1-c1cccc(Cl)c1C#N	-12	0	0.0	20	11	1.2	0.5	0	1	4
O=C(NCc1ccco1)c1cccc2c1C(=O)N(C1CCCCC1)C2	12	2	2.0	.	.	.	0.5	3	-6	-5
Cn1ncc2c(NNC(=O)c3ccc(Cl)cc3Cl)ncnc21	-25	3	1.8	12	25	1.5	1.9	6	-10	-10
CC1(C)CC(=O)C2=C(C1)OC(N)=C(C#N)C2C1C=CCCC1 (centres undefined)	-5	-6	-6.8	.	.	.	0.7	-11	0	0
CCN1C(=O)[C@H]2[C@@H](c3ccc(-c4ccccc4)cc3)N[C@@](C)(C(=O)OC)[C@H]2C1=O	3	1	7.5	-4	-4	-2.0	0.9	6	-6	-1
COc1cc2c3nc4n(c(=O)c3n(CC(=O)NCC3CCCO3)c2cc1OC)CCS4 (centres undefined)	-24	-6	-4.0	12	14	3.3	0.1	5	-13	-11
Cc1ccc(-c2nnn(CC(=O)N(CC(=O)NC3CCCC3)c3cccc(F)c3)n2)o1	-3	0	-1.9	2	4	-1.1	1.4	-11	-1	3
c1ccc(-c2ccccc2OCCN2CCCCC2)cc1	-6	-32	2.5	.	.	.	0.0	3	-6	4
NNC(=O)c1ccc2c(c1)S(=O)(=O)NNC2=O	-8	3	3.2	-3	1	0.3	1.2	-16	-1	-3
CCCc1nnc(SCC(=O)N2CCCCC2C)n1CC (centres undefined)	-4	3	0.8	.	.	.	-0.7	-18	-7	-1
CCN1CCCC1CN(Cc1cc2cc(C)cc(C)c2[nH]c1=O)C(=O)Nc1ccccc1OC (centres undefined)	-4	-5	1.0	.	.	.	0.7	-2	.	1
Cc1cc(C)cc(OCCNC(=O)CCc2ccccc2)c1	4	-6	-1.3	-8	-9	-3.7	0.4	0	-7	.
CCCN(CCC(=O)Nc1ccccc1F)CC1CC1	-10	-12	4.2	.	.	.	1.3	-9	5	-5
COc1ccc(-c2csc(NC(=O)c3ccc(S(=O)(=O)N4CCc5ccccc5C4)cc3)n2)cc1	-13	-1	2.8	18	20	-1.1	-0.8	-13	1	4
COc1cc(C(=O)NC(=S)Nc2csc(-c3ccc(F)cc3)n2)cc(OC)c1OC	-1	0	-2.1	3	5	-1.5	-1.2	12	-5	0
Cc1ccc(N2C(=O)C3C4C=CC(CC4)C3C2=O)cc1Br (centres undefined)	-10	-4	-0.8	22	13	1.1	0.7	0	-4	-2
O=C(c1ccccc1)c1ccc2c(c1)OCCCO2	3	-5	2.6	.	.	.	-4.1	-3	-7	1
CC(=O)c1cccc(Nc2c3c(nc4ccccc24)CCC3)c1	-29	1	1.9	-19	-24	2.2	-0.5	4	1	26
CC(C)C(NC(=O)c1ccccc1NC(=O)c1ccccc1)C(=O)NNC(=O)c1ccncc1 (centres undefined)	-5	-4	2.4	4	12	-0.9	0.5	-3	4	0
COc1ccc(C(=O)CNc2ccccc2Br)cc1	-6	1	1.9	3	12	-2.4	-1.7	29	-3	-2
Cc1cccc(OCC(=O)Nc2ccc3c(c2)nc2n3CCOC2)c1	1	-7	-0.5	-3	-8	-4.7	0.8	-1	-8	-2
Cc1ccc(OCC(=O)Nc2ccc(NC(=O)c3ccco3)cc2)c(C)c1	-5	0	3.0	6	5	-2.1	0.4	6	-30	-2
CS(=O)(=O)c1cnc(-c2ccccc2)nc1-c1ccccc1Cl	0	2	0.6	-19	-23	-1.9	0.4	40	18	-5
O=S1(=O)CCOC[C@H](Cc2ccccc2)N1Cc1cccc(C(F)(F)F)c1	21	1	-2.0	-39	-64	6.8	0.2	13	-3	-10
O=C(CCN1C(=O)/C(=C/c2ccccc2F)SC1=S)NCCc1ccc(O)cc1	-9	4	-4.9	3	3	1.5	0.0	-7	-2	.
CCCCn1c(N)nc2ccccc21	-9	.	-1.8	.	.	.	0.8	7	0	4
OC(COc1ccccc1)CN1CCN(c2ncccn2)CC1 (centres undefined)	-4	3	2.6	.	.	.	0.7	-3	-4	-5
CCNc1nc(C23CC4CC(CC(C4)C2)C3)cs1	27	62	0.5	-59	-84	-18	-0.2	-6	7	9
O=C(NCc1ccccc1)c1cc2nc(C3CC3)cc(C(F)(F)F)n2n1	12	-6	-1.8	.	.	.	0.2	4	-1	1
Continued:
SMILES	T cruzi repl	ALR H2O2 inh	LANA-H2B inh	rRNA inh HTS	rRNA inh HTS OD600	rRNA inh HTS RFP	A1 inh	Calb FLC	Beta2AR agonist	Beta cell apopt
CC(OC(=O)c1cc2ccccc2[nH]1)C(=O)N(C)c1ccccc1 (centres undefined)	.	.	-3.7	-34	-46	-8.5	0.1	.	1	-1
O=C1C2CC=CCC2C(=O)N1c1ncn[nH]1 (centres undefined)	2	-5	3.1	.	.	.	-0.4	9	7	-7
COC(CN(C(=O)CCl)C(C(=O)NC1CCCCC1)c1ccc(Cl)cc1)OC (centres undefined)	-13	0	1.4	3	2	-5.3	1.3	27	1	.
COC(=O)Cc1c(C(=O)OC)nnn1-c1ccc(OC)cc1	-30	-4	4.8	8	7	3.2	-5.4	?	4	-3
Cc1ccnc(NC(=O)c2cc3ccccc3oc2=O)c1	-17	-55	1.7	22	-6	-4.7	-1.1	4	-7	-3
CCCCNC(=O)c1ccc2c(c1)S(=O)(=O)c1ccccc1C2=O	3	-10	3.2	-13	-11	-3.9	-0.4	6	-5	5
Nc1ccc(Br)c2c1C(=O)c1ccccc1C2=O	7	-4	-0.2	.	.	.	0.6	-24	.	.
CC(=O)Nc1ccc(Nc2nnc(-c3ccc(C)c(S(=O)(=O)NCCO)c3)c3ccccc23)cc1	-4	-10	1.2	-3	2	-2.3	0.6	-1	0	-6
CCCc1cc(=O)[nH]c(SCC(=O)c2cc(C)n(CC(F)(F)F)c2C)n1	-9	15	-0.3	-17	-14	-2.2	1.0	14	-3	2
N/C(=N\OC(=O)c1cccs1)c1ccc(Cl)cc1	-10	0	1.3	2	11	-3.3	-1.6	2	-8	.
